V. cholerae QS = Vibrio cholerae quorum sensing activators, luminescence (AID 686977); V. cholerae quorum sensing reporter, luminescence, 6 h; higher luminescence means a stronger effect; most inactives read 0; luminescence at 50 µM unless noted; hits with a dose series show EC50 in µM; 9,400 tested, under 10 active;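 active = light above mean plus 3 SD and confirmed in a dose series; inconclusive = above that limit without a clear retest; inactive = below it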;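 note: raw light counts without normalisation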
The depositor's hits bear a star; ? = inconclusive; [ ] = dose if it differs, or a comment. A portion of the library. The share of hits here may be higher or lower than overall.

SMILES | V. cholerae QS
CCOC(=O)Cn1c(=O)oc2cc(S(=O)(=O)Nc3c(C)cc(C)cc3C)ccc21 | 0
OCCN1CCN(c2ncnc3c2sc2nc(N4CCOCC4)c4c(c23)CCC4)CC1 | 0
NC(=O)c1cc[n+](CC2=C(C(=O)O)N3C(=O)[C@@H](NC(=O)[C@@H](c4ccccc4)S(=O)(=O)[O-])[C@H]3SC2)cc1 | 0[10 µg/mL]
CN(C)C(=O)Oc1ccc(-c2nnco2)cc1 | 0
CCN(CC)CCOCCOC(=O)C1(c2ccccc2)CCCC1 | 0[10 µg/mL]
Cc1ccc(Cc2c(C)nc3nc(SCC(=O)N4CCC5(CC4)OCCO5)nn3c2C)cc1 | 40
COc1ccc(Cl)cc1N/C(N)=N/c1nc(CSc2ccc(C)cc2)cc(=O)[nH]1 | 0
CN(C)CCCN1c2ccccc2CCc2ccccc21 | 0[10 µg/mL]
COC(=O)c1ccc(CSc2nnc3sc4ccccc4n23)o1 | 40
Cc1c(C(=O)NCc2ccc3c(c2)OCO3)sc2nc(-c3ccccc3)cn12 | 40
O=C(CNS(=O)(=O)c1ccccc1)OCC(=O)c1ccc(OC(=O)c2ccccc2)cc1 | 0
CCOc1ccccc1NC(=O)C1CCCN(S(=O)(=O)c2cccc3cccnc23)C1 (stereo not drawn) | 40
CCOc1ccc(N(CC(=O)NCc2ccco2)S(=O)(=O)c2ccc(OC)c(OC)c2)cc1 | 0
CNc1ncnc2c1ncn2[C@@H]1O[C@H](CO)[C@@H](O)[C@H]1O | 0[10 µg/mL]
O=C(NCCN1C(=O)C2C3C=CC(C3)C2C1=O)N1CCOCC1 (stereo not drawn) | 0
O=Cc1ccc2noc(-c3ccc(F)cc3)c2c1 | 0
CC1=C2[C@H]3OC(=O)[C@@H](C)[C@@H]3CC[C@@]2(C)C=CC1=O | ?
Cc1csc2nc(CNC(=O)C3CCCCC3)cn12 | 0
Cc1ccc(NS(=O)(=O)c2ccc(OCC(=O)N3CCOCC3)cc2)cc1 | 40
C1=C2C[N+]3(CCCC3)CC2Cc2ccc3ccccc3c21 (stereo not drawn) | 280
CCN(CC(=O)NC1CCS(=O)(=O)C1)c1nc(-c2cccnc2)nc2ccccc12 (stereo not drawn) | 0
C=CCN(CC=C)Cc1c[nH]c2ccccc12 | 0
Cn1nc(-c2ccc(Cl)cc2)c2cc(C(=O)NCc3ccco3)sc21 | 0
CC(C)Cc1nnc(NS(=O)(=O)c2ccc(Cl)cc2)s1 | 40
COc1ccccc1Nc1nc(-c2cccc([N+](=O)[O-])c2)nc2ccccc12 | 0
CN1/C(=c2/s/c(=C3/C(=O)N(c4ccccc4)NC3=Nc3ccccc3)n(C)c2=O)C(C)(C)c2ccccc21 | 40
CN(CCNC(=O)Cn1c(=O)sc2ccccc21)Cc1ccccc1 | 40
CC(=O)N1CCc2cc(C(=O)CN3CCN(c4ccccc4F)CC3)ccc21 | 40
CCOC(=O)CN1CC23C=CC(O2)C(C(=O)NC2CCCCCC2)C3C1=O (stereo not drawn) | 0
COc1ccc(C2N(c3ccc(OC)cc3)C(=O)C3CCCN32)cc1 (stereo not drawn) | 280
COC(=O)c1ccc(CSc2nc3c(c(=O)n2-c2ccccc2)SCC3)o1 | 40
O=C(c1ccc(Br)o1)N1CCN=C1SCc1cccnc1 | 40
Cc1ccc(-c2nn(C)c(=O)c3ccccc23)cc1S(=O)(=O)N1CCCC1 | 40
COc1ccccc1-c1coc2cc(O)cc(O)c2c1=O | 0
COCCn1c(SCC(N)=O)nnc1-c1c[nH]c2ccccc12 | 40
O=C(CCc1ccccc1)NC(=S)Nc1cc(C(F)(F)F)ccc1N1CCOCC1 | 40
CCC(=O)N1CCN(c2ccccc2NC(=O)c2ccc(OC)c(Cl)c2)CC1 | 120
CCc1ccc(NC(=O)c2ccc(C3SCC(=O)N3CCc3ccccc3)cc2)cc1 (stereo not drawn) | 0
CCOc1ccc(NC(=O)CN(C)CC(=O)Nc2cc(Cl)ccc2C#N)cc1OCC | 200
CC1CC(C)CN(S(=O)(=O)c2cccc(C(=O)OCCN3CCCC3=O)c2)C1 (stereo not drawn) | 40
CN1C(=O)CC(c2ccccc2)C1=O (stereo not drawn) | 40[10 µg/mL]
CC(=O)Nc1ccccc1-c1nc2ccc(C(=O)N3CCN(c4ccccc4)CC3)cc2[nH]c1=O | 0
Brc1ccc(CSc2ncnc3nc[nH]c23)cc1 | 40
CCN1CCN(c2cc(C)c3cc(NC(=O)c4cnccn4)ccc3n2)CC1 | 0
Cc1cc(=O)[nH]c(SCC(=O)c2c(N)n(C)c(=O)n(C)c2=O)n1 | 40
O=C(Cn1cnc2c(nnn2Cc2ccc(F)cc2)c1=O)N1CCCCC1 | ?
CCOC(=O)c1[nH]c(C)c(C(=O)NCc2ccc(OC)cc2)c1C | 0
CCC(=O)N1c2ccc(S(=O)(=O)CCC(=O)NC3CCCC3)cc2CC1C (stereo not drawn) | 0
CCc1ccccc1N1CC23C=CC(O2)C(C(=O)OCC(C)C)C3C1=O (stereo not drawn) | 0
O=C(c1cccs1)n1nc(-c2ccccc2)nc1NCc1ccc(F)cc1 | ?

Part of the list above, with each value named:
> Cc1cc(=O)[nH]c(SCC(=O)c2c(N)n(C)c(=O)n(C)c2=O)n1
  V. cholerae QS = 40

> CCOC(=O)c1[nH]c(C)c(C(=O)NCc2ccc(OC)cc2)c1C
  V. cholerae QS = 0

(next part)
SMILES | V. cholerae QS
COc1ccccc1NC(=O)C1CCCN(S(=O)(=O)c2cnc[nH]2)C1 (stereo not drawn) | ?
CCOc1ccc(-n2cnnn2)cc1S(=O)(=O)NCCc1ccc(OC)c(OC)c1 | 0
COc1cc(CCC(=O)N2CCN(c3ccc(N4CCOCC4)nn3)CC2)cc(OC)c1OC | 0
Cc1onc(-c2ccccc2)c1C(=O)Nc1nnc(N(C)Cc2ccccc2)s1 | 40
Cn1c(=O)n(C)c2cc(NS(=O)(=O)c3ccc4c(c3)CCCC4)ccc21 | 40
O=C1C2C3C=CC(C3)C2C(=O)N1c1cccc(N2C(=O)C3C4C=CC(C4)C3C2=O)n1 (stereo not drawn) | 40
COc1cc(NC(=O)c2ccco2)c(OC)cc1NC(=O)Nc1ccccc1Cl | 0
CN1CCN(CCCNC(=O)c2cn(C3CCCCC3)c(=O)c3c2c2ccccc2n3C)CC1 | 0
O=C(CSc1cn(CCNC(=O)c2ccc3ccccc3c2)c2ccccc12)NCc1ccco1 | 40
CN1CC[C@]23c4ccccc4N[C@H]1[C@]21CCN(C)[C@H]3Nc2ccccc21 | 40[10 µg/mL]
COc1ccc(S(=O)(=O)N2CCC(C(=O)N3CCc4ccccc4C3)CC2)cc1Cl | ?
CCOc1ccc(C(C)=O)cc1CN1C(=O)NC2(CCCCC2C)C1=O (stereo not drawn) | 0
COc1cccc(-n2c(Cc3cc(=O)[nH]c(=O)[nH]3)nnc2SCC(=O)N2CCCCCC2)c1 | 40
Cc1ccccc1C(=O)NNC(=O)C(=O)Nc1cccc(Cl)c1C | 80
Cc1cc2cc(CCNC(=O)c3c(-c4ccccc4Cl)noc3C)c(=O)[nH]c2cc1C | 0
CC(C)c1ccc(C(O)c2cnc(C(C)C)n2C)cc1 (stereo not drawn) | 40
CCN(CC)S(=O)(=O)c1ccc(Cc2ncc(C(F)(F)F)cc2Cl)s1 | 40
CCc1nccn1S(=O)(=O)c1cc(C)c(OC)cc1C | 0
O=C(c1cnn2cccnc12)N1CCN(Cc2ccc3c(c2)OCO3)CC1 | 0
C=CCN1C(=O)C2C(C(=O)NC3CCCCC3)C3C=CC2(O3)C1C(=O)NC1CCCC1 (stereo not drawn) | 0
CN(C)CCOc1nc(-c2ccccc2)nc2c1oc1ccccc12 | 0
Cc1cnc(NC(=O)CSc2nc3ccccc3s2)s1 | 40
Cc1cc2oc(=O)cc(C)c2c(=O)o1 | 0
c1ccc(CNc2cnccn2)cc1 | 0
O=C(CSc1nnc(C2CC2)n1Cc1ccccc1)c1cc2ccccc2o1 | 80
CCOC(=O)/C(=C\c1ccccc1)C(=O)c1cc(C(C)=O)c(Nc2ccccc2)s1 | 0
CC(C)(C)n1nc(-c2ccc(F)cc2)c2c(N)ncnc21 | 40
O=C1C(=O)c2ccccc2C(O)=C1C1CCC(c2ccc(Cl)cc2)CC1 (stereo not drawn) | 40[10 µg/mL]
O=C(NCCc1ccc(S(=O)(=O)N2CCCC2)cc1)c1cccs1 | 0
CCC1NC(=O)c2cc(S(N)(=O)=O)c(Cl)cc2N1 (stereo not drawn) | ?

For reference, some entries already given.
SMILES | V. cholerae QS
Cc1ccccc1C(=O)NNC(=O)C(=O)Nc1cccc(Cl)c1C | 80
Cc1cc2cc(CCNC(=O)c3c(-c4ccccc4Cl)noc3C)c(=O)[nH]c2cc1C | 0
CC(C)c1ccc(C(O)c2cnc(C(C)C)n2C)cc1 (stereo not drawn) | 40
CCN(CC)S(=O)(=O)c1ccc(Cc2ncc(C(F)(F)F)cc2Cl)s1 | 40
CCc1nccn1S(=O)(=O)c1cc(C)c(OC)cc1C | 0
O=C(c1cnn2cccnc12)N1CCN(Cc2ccc3c(c2)OCO3)CC1 | 0
C=CCN1C(=O)C2C(C(=O)NC3CCCCC3)C3C=CC2(O3)C1C(=O)NC1CCCC1 (stereo not drawn) | 0
CN(C)CCOc1nc(-c2ccccc2)nc2c1oc1ccccc12 | 0
Cc1cnc(NC(=O)CSc2nc3ccccc3s2)s1 | 40
Cc1cc2oc(=O)cc(C)c2c(=O)o1 | 0
c1ccc(CNc2cnccn2)cc1 | 0
O=C(CSc1nnc(C2CC2)n1Cc1ccccc1)c1cc2ccccc2o1 | 80
CCOC(=O)/C(=C\c1ccccc1)C(=O)c1cc(C(C)=O)c(Nc2ccccc2)s1 | 0
CC(C)(C)n1nc(-c2ccc(F)cc2)c2c(N)ncnc21 | 40
O=C1C(=O)c2ccccc2C(O)=C1C1CCC(c2ccc(Cl)cc2)CC1 (stereo not drawn) | 40[10 µg/mL]
O=C(NCCc1ccc(S(=O)(=O)N2CCCC2)cc1)c1cccs1 | 0

New compounds follow:
SMILES | V. cholerae QS
CSc1nc2ccc3nc(NC(=O)c4ccc(Cl)s4)sc3c2s1 | 280
Clc1ccc(OCCN2CCOCC2)cc1Cl | 40
CCC(C)(C)n1nnnc1CN(Cc1cc2cc(OC)ccc2[nH]c1=O)C1CCCC1 | 0
Cc1cc(C)cc(Oc2ccc(C(F)(F)F)cc2C#N)c1 | 0
O=C(CCc1nc(-c2ccccc2)no1)NCc1cccnc1 | 80
Cc1ccc2c(c1)NC(=O)C(CC(=O)N(C)Cc1ccccc1)O2 (stereo not drawn) | 240
c1ccc2c(c1)OCC(c1csc3ncnc(N4CCCC4)c13)O2 (stereo not drawn) | 40
O=S(=O)(c1ccc2ccccc2c1)N1C=CC(C(F)(F)F)=NCC1 | 0
CC(NC(=O)Cc1ccccc1)c1nc2ccccc2[nH]1 (stereo not drawn) | ?
COc1cc(NS(=O)(=O)c2ccc(F)cc2)c(OC)cc1NC(=O)C1CC1 | 40
CCOc1ccc(S(=O)(=O)N(CC(=O)N/N=C/c2cccs2)c2ccc(C)cc2)cc1 | 0
COc1ccc2nc(SCC(=O)NC(C)C)[nH]c2c1 | 160
COc1ccc2c(c1)C(C)=CC(C)(C)N2C(=O)CNCc1ccc2c(c1)OCO2 | 0
CCN(CC)c1ccc(NC(=O)C2CCCN(S(=O)(=O)c3cccnc3)C2)c(C)c1 (stereo not drawn) | 0
CCCC(C)NC(=O)c1nc(-c2ccccc2)n(-c2ccccc2)n1 (stereo not drawn) | 0
CCC(C)C(NC(=O)c1ccccc1NC(=O)c1ccc(OC)cc1)C(=O)NCc1ccco1 (stereo not drawn) | 0
CC(=O)N(O)CCCCCNC(=O)CCC(=O)N(O)CCCCCNC(=O)CCC(=O)N(O)CCCCCN | 0[10 µg/mL]
CC(Sc1nc2ccccc2c(=O)n1Cc1ccco1)C(=O)c1ccccc1 (stereo not drawn) | 0
CN1C[C@H](CNC(=O)OCc2ccccc2)C[C@@H]2c3cccc4c3c(cn4C)C[C@H]21 | 40[10 µg/mL]
COc1c(C(=O)Nc2c(C)n(C)n(-c3ccccc3)c2=O)ccc2ccccc12 | 0
Clc1ccsc1-c1csc(-c2cccnc2)n1 | 40
CC(=O)Oc1cccc(N2C(=O)C3C(C2=O)C2C=CC3C23CC3)c1 (stereo not drawn) | 40
CCOc1ccc2nc(N3CCCC(C(=O)N4CCN(CC)CC4)C3)sc2c1 (stereo not drawn) | 0
COc1cc(OC)cc(-c2nnc(SCc3cccc(C(=O)O)c3)o2)c1 | ?
CCOC(=O)N1CCN(C(=O)c2ccc3nc4ccsc4c(=O)n3c2)CC1 | 0
C[C@@H]1CCC[C@H](C)N1 | 0[10 µg/mL]
COCCOC(=O)C1=C(C)OC(N)=C(C#N)C1c1ccc2c(c1)OCO2 (stereo not drawn) | 0
O=C(O)CCC(=O)N1CCc2cc(S(=O)(=O)N3CCN(c4ccc(F)cc4)CC3)ccc21 | 0
C=CCn1c(SCCCCCC)nc(O)cc1=O | ?
CC(C)n1c(CCC(=O)O)ccc1-c1ccccc1 | 40
COc1ccc(-c2c(C)oc3cc(O)cc(O)c3c2=O)cc1OC | 0
Cc1ccc(OCCCC(=O)Nc2nncs2)cc1 | 0
COc1ccc(S(=O)(=O)Cc2ccc(C(=O)N3CCN(c4cccc(C)c4C)CC3)o2)cc1 | 40
CC1(NC(=O)c2cc(S(=O)(=O)N3CCCCC3)ccc2Cl)CCS(=O)(=O)C1 (stereo not drawn) | 0
CC(=O)c1c(N2CCCC2)nc(=S)n(-c2ccccc2)c1C | 200
O=C(O)CSc1cccc2cccnc12 | 40
COc1cccc(C(=O)OC(C)CN2CCCC2)c1 (stereo not drawn) | 0
O=C(NCc1ccc(F)cc1)c1cc2n(n1)C(C(F)(F)F)CC(C1CC1)N2 (stereo not drawn) | 40
O=C(C(Cc1ccccc1)n1cccc1)N1CCN(C2CCCCC2)CC1 (stereo not drawn) | 0
c1ccc(Nc2ccccn2)cc1 | 0
CC[N+](C)(CC)CCOC(=O)C1c2ccccc2Oc2ccccc21 | 0[10 µg/mL]
COc1ccc(-c2ncncc2-c2csc(C)n2)c(O)c1OC | 40
CCOC(=O)c1oc2ccccc2c1CN1CCN(C(=O)c2ccccc2)CC1 | 40
O=C(Nc1ccccc1F)C1CCCN(S(=O)(=O)c2cccc3cccnc23)C1 (stereo not drawn) | ?
O=C(CSC(=S)N1CCCCC1)N1N=CCC1c1ccccc1 (stereo not drawn) | 0

Screens as filed in PubChem.
